AF4-AF9 inh: inhibitors of human MLL-AF4/AF9 interaction | P42568 | AlphaScreen, biotin-AF4 peptide binding to FLAG-AF9 | inhibition, % at 10 µM | actives 0.47% (n = 350,000) | AID 651704;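 active means every replicate reaching a set inhibition limit, whatever the replicate mean, cut at about 25% in these data; inconclusive means mean inhibition reaches that limit but some replicates miss it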;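 further: 0% = plate neutral control median and 100% = total signal loss; the record names both 10 and 1 µM as test concentration; the first replicate is given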
Target sequence (P42568 whole entry, looked up): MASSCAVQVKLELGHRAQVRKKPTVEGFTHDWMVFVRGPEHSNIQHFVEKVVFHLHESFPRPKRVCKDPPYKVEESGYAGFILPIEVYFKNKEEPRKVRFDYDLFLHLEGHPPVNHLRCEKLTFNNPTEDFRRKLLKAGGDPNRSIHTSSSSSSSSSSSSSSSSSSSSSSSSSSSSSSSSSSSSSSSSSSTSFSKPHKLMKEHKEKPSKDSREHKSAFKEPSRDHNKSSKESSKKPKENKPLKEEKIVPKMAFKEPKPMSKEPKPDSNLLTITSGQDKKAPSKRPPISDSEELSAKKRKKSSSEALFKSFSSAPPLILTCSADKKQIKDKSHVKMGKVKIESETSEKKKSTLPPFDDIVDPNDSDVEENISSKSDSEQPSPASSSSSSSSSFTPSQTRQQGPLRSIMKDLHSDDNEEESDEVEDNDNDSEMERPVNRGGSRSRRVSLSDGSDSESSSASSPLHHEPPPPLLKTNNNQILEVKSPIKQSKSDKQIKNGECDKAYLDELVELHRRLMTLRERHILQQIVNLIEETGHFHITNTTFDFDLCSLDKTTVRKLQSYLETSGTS
RanGTP-Imp inh: inhibitors of RanGTP-importin-beta interaction, primary screen, biochemical, FRET, CFP-Ran, YFP-importin-beta, homogeneous; AID 2216; actives 1.1% (n = 300,000); inhibition, % (no concentration beside the values); cell-free CFP-Ran/YFP-importin-beta FRET ratio;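 active means most replicates above 15%; inconclusive means exactly half above 15%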;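 further: 0% = DMSO wells and 100% = Ran loaded with GDP instead of GTP; wells of about 40 µL received 100 nL stock; the first replicate is given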
A1 inh: inhibitors of the anti-apoptotic protein A1, read as caspase activation; MEF A1-2A-BIM cells, Caspase-Glo 3/7 luminescence, 3 h; percent of clofoctol response, vehicle zero; caspase activation, % (test concentration not listed); actives 0.066% (n = 330,000);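 active means over half of replicate activation scores above 10%, or exactly half above 10 with the replicate mean above 10; inconclusive means replicate mean below 10 yet half the replicates above 10; inactive means over half of replicates below 10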;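 further: wells of about 30 µL received 50 nL stock; many hits fall short of the cut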
T cruzi inh: blocks replication of Trypanosoma cruzi; T. cruzi beta-gal in NIH3T3, luminescence, 90 h; AID 1885; actives 1.4% (n = 300,000); inhibition, % (concentration not given with the values);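 active means mean inhibition across valid replicates above about 55%, limit read from the data; inconclusive means mean below that limit but half or more replicates reach it; inactive means mean below it, under half of replicates reach it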;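 further: signal also drops with host cell toxicity which is not excluded here; 0% = plate median of DMSO wells and 100% = zero luminescence signal; higher percent means less beta-gal luminescence so fewer parasites; stock transfer was 50 nL into about 50 µL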
rRNA inh HTS: inhibits bacterial ribosomal RNA function over humanized ribosomes; GFP signal change (wild-type ribosome), % (test concentration not listed); actives 1.6% (n = 350,000); E. coli WT GFP vs humanized-ribosome RFP mutants, fluorescence, 24 h; hits give low values; DMSO median 0, no signal -100; AID 720706;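 active means significant combined selectivity score with lowered wild-type GFP, culture density cut under 30%, mutant RFP and density less affected; inactive means any of these conditions unmet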; further: one replicate is shown; some compounds called inactive have numbers as strong as hits
Beta cell apopt: beta cell apoptosis inhibition; INS-1E cytokine-induced death, ATP luminescence, 48 h; percent of positive-control rescue, neutral wells zero; protection from apoptosis, % (test concentration not listed); actives 0.8% (n = 300,000);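 active means all replicates at 75% or more, or half of them and the mean; inconclusive means half reach 75% but not the mean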;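 further: 0% = cytokine-treated negative control wells and 100% = positive control rescue; higher means more ATP so stronger rescue from cytokine killing; wells of about 40 µL received 100 nL stock; the first replicate is given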
Vif A3G: inhibitors of Vif binding to APOBEC3G peptide, primary screen, biochemical, TR-FRET, GST-Vif 1-94, biotin-A3G peptide, dose response retest (AID 1117319) | actives 0.57% (n = 260,000) | inhibition, %; hits with a dose series show IC50 in µM | TR-FRET GST-Vif / biotin-A3G peptide binding; higher % means a stronger effect; test concentration not given here; strong numbers were not always called active;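 active means above the screen mean plus three standard deviations and confirmed in dose response; inconclusive means results disagree or hit not tested in dose response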;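 further: Vif residues 1-94 fused to GST binding biotinylated APOBEC3G peptide 110-148; 0% = full assay without inhibitor and 100% = GST in place of GST-Vif; retest series ran down from 100 µM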
Calb FLC: affects C. albicans growth with fluconazole | C. albicans CaCi-2 (fluconazole-resistant clinical isolate) + fluconazole, Alamar Blue growth, 48 h | growth inhibition, % (concentration not given with the values) | actives 0.57% (n = 300,000);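 active means most replicates above 75%; inconclusive means exactly half above 75%; inactive means most below 75%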;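 further: all wells also contain fluconazole at 8 µg/ml as a sub-toxic cotreatment; 0% = median of DMSO wells and 100% = median of geldanamycin control wells; wells of about 8 µL received 7.5 nL stock; the first replicate is given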
rRNA inh HTS OD600: further read-out of rRNA inh HTS, marked with its call; OD600 change, %; measured here: OD600 growth;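 optical density of the mix in the first replicate; 0 = DMSO median and -100 = no signal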
rRNA inh HTS RFP: also measured in rRNA inh HTS; calls as there; RFP signal change, %; measured here: RFP humanized mutant strains;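 first replicate; 0 = DMSO median and -100 = no signal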
* = called active by the depositor; ? = inconclusive; / = not tested or not shown.

compound	Vif A3G	A1 inh	RanGTP-Imp inh	AF4-AF9 inh	T cruzi inh	rRNA inh HTS OD600	rRNA inh HTS	Calb FLC	rRNA inh HTS RFP	Beta cell apopt
CC(=O)c1cccc(NC(=O)c2cc(-c3ccco3)on2)c1	2%	0.1	0.5	-2.4	-1	9	6	-2	1.0	-2
CNc1snc(C)c1C(=O)OC(C)C(=O)Nc1cccc(C)c1 (stereo not given)	1%	-1.0	/	-4.2	/	-17	-2	/	0.1	2
CCC(C)c1ccc(S(=O)(=O)N2CCN(C(C)C(=O)NC3CCCC3)CC2)cc1 (stereo not given)	-11%	-0.7	/	12	/	-16	-7	/	3.2	9
O=C(COC(=O)Cc1ccc(Cl)cc1)Nc1ccc(OC(F)F)cc1	6%	-0.9	4.8	/	4	/	/	-14	/	1
CCCn1c(Cc2ccccc2)n[nH]c1=S	?	0.2	7.6	/	-28	/	/	-10	/	-6
Cc1cc(NC(=O)C(C)SCC(=O)OCC(=O)N(C)c2ccccc2)no1 (stereo not given)	5%	1.0	5.1	2.9	-10	15	10	-4	-0.9	1
COc1cc(C(=O)N(c2ccc(C)c(C)c2)C2C=CS(=O)(=O)C2)cc(OC)c1OC (stereo not given)	20%	-0.3	4.1	-3.6	-15	6	5	7	-1.1	-1
OCC1(Cc2ccc(F)cc2F)CCCN(CCCc2ccccc2)C1 (stereo not given)	/	-0.3	-4.1	-2.3	50	-17	-18	-2	2.3	/
COc1ccc(NC(=O)CN(C)CC(=O)Nc2cccc(F)c2)cc1Cl	-12%	-0.7	0.5	1.8	1	-50	-31	53	-4.3	-12
CSCCC(NC(=O)/C(=C/c1ccc2c(c1)OCO2)NC(=O)c1cccc([N+](=O)[O-])c1)C(=O)O (stereo not given)	23%	-0.1	1.7	-6.8	-14	17	16	-6	4.7	-6
Cc1cc(C(C)(C)C)cc(C)c1S(=O)(=O)N1CCN(C(=O)c2cc([N+](=O)[O-])c[nH]c2=O)CC1	/	0.1	0.0	?	32	-2	6	3	8.6	1
Oc1ccccc1-c1cc(C(F)(F)F)nc(-c2ccccc2)n1	6%	-0.1	1.9	1.2	-6	10	5	29	-0.4	-8

Part of the list above with just RanGTP-Imp inh and Vif A3G:
| structure | RanGTP-Imp inh | Vif A3G |
| --- | --- | --- |
| CC(=O)c1cccc(NC(=O)c2cc(-c3ccco3)on2)c1 | 0.5 | 2% |
| CNc1snc(C)c1C(=O)OC(C)C(=O)Nc1cccc(C)c1 (stereo not given) | / | 1% |
| CCC(C)c1ccc(S(=O)(=O)N2CCN(C(C)C(=O)NC3CCCC3)CC2)cc1 (stereo not given) | / | -11% |
| O=C(COC(=O)Cc1ccc(Cl)cc1)Nc1ccc(OC(F)F)cc1 | 4.8 | 6% |
| CCCn1c(Cc2ccccc2)n[nH]c1=S | 7.6 | ? |

Further records
compound	Vif A3G	A1 inh	RanGTP-Imp inh	AF4-AF9 inh	T cruzi inh	rRNA inh HTS OD600	rRNA inh HTS	Calb FLC	rRNA inh HTS RFP	Beta cell apopt
Cc1cc(C)c(C)c(OCCCCn2cnc3ccccc3c2=O)c1	0%	-0.1	1.9	/	44	/	/	-12	/	1
N#C/C(=C/c1ccc(CNS(=O)(=O)c2ccccc2)o1)C(N)=O	/	0.1	-2.2	/	-14	/	/	-4	/	-5
CCn1c(SCC(=O)N/N=C/C=C\c2ccccc2[N+](=O)[O-])nc2ccccc21	-1%	0.0	-2.3	/	0	/	/	-4	/	-1
O=C(CCN1CCCCC1)N/N=C/c1c[nH]c2ccccc12	-4%	0.6	3.3	/	1	-5	2	-1	-2.2	/
Cc1ccc(/C=N/Nc2cn[nH]c(=O)n2)o1	1%	-1.2	0.4	-1.3	-21	-2	-4	-3	-2.8	3
CSc1cccc(NC(=O)CN(c2ccc(C)cc2C)S(C)(=O)=O)c1	2%	0.4	2.8	/	-5	/	/	11	/	2
CC(=O)c1c(C)nc2nonc2c1N	7%	1.4	1.0	/	-24	/	/	5	/	-2
Cc1cc(C)c(C#N)c(SCC2COc3ccccc3O2)n1 (stereo not given)	-1%	-0.8	1.7	/	21	/	/	11	/	-1
Cc1nn2c(COc3ccc(NC(=O)c4ccccc4Cl)cc3)nnc2c2ccccc12	4%	0.5	-1.9	/	0	/	/	2	/	-5
O=C1NC(=O)C(Cc2cccc(Oc3ccccc3)c2)S1 (stereo not given)	/	-1.8	-0.3	-1.7	-21	-62	-23	?	-8.9	-1
CC(C)N1CCN(Cc2ccc3c(c2)Cc2ccccc2-3)CC1CCO (stereo not given)	3%	-0.5	1.1	4.0	58*	-10	6	-21	1.4	-1
O=c1c2ccccc2oc2cc(OCc3ccc(F)cc3)cc(O)c12	2%	1.2	0.7	4.0	-8	9	-2	1	0.9	-1

A draw from above in order of count of non-hydrogen atoms, high to low.
compound	Vif A3G	A1 inh	RanGTP-Imp inh	AF4-AF9 inh	T cruzi inh	rRNA inh HTS OD600	rRNA inh HTS	Calb FLC	rRNA inh HTS RFP	Beta cell apopt
CCn1c(SCC(=O)N/N=C/C=C\c2ccccc2[N+](=O)[O-])nc2ccccc21	-1%	0.0	-2.3	/	0	/	/	-4	/	-1
Cc1cc(C)c(C)c(OCCCCn2cnc3ccccc3c2=O)c1	0%	-0.1	1.9	/	44	/	/	-12	/	1
O=C1NC(=O)C(Cc2cccc(Oc3ccccc3)c2)S1 (stereo not given)	/	-1.8	-0.3	-1.7	-21	-62	-23	?	-8.9	-1

Later entries.
compound	Vif A3G	A1 inh	RanGTP-Imp inh	AF4-AF9 inh	T cruzi inh	rRNA inh HTS OD600	rRNA inh HTS	Calb FLC	rRNA inh HTS RFP	Beta cell apopt
Cn1ccnc1SCC(=O)N1CCc2ccccc21	/	1.4	-1.0	-1.9	-11	16	8	0	1.3	-1
CCCNC(=O)CSc1nccn1Cc1ccco1	/	0.6	4.1	-2.3	-13	6	5	-5	3.6	-1
Cc1nn(CC2CC2)c(=O)n1N(C)c1ncc(C(F)(F)F)cc1Cl	4%	-0.2	-2.6	-2.5	-9	9	2	1	-2.8	2
CCN(CC)S(=O)(=O)c1cccc(NC(=O)/C=C/c2ccc([N+](=O)[O-])cc2)c1	/	-0.3	-0.8	/	-7	/	/	-1	/	3
Cc1ccc(C(=O)NCCc2nnc3ccc(SCC(=O)Nc4ccccc4C)nn23)cc1	/	0.4	?	/	-7	/	/	-10	/	-8
CCOc1ccc(NC(=O)CCC(=O)N/N=C(\C)c2cccs2)cc1	/	-0.6	4.4	-24	2	5	4	-5	-0.8	6
CC(=O)N1CCN(C(=O)COC(=O)/C=C/c2ccc(C(F)(F)F)cc2)CC1	/	0.1	/	-2.0	/	0	-2	/	-12	-1
O=S(=O)(Nc1cccc(-c2cn3c(n2)SCC3)c1)c1ccccc1F	4%	0.5	-2.5	-9.9	-14	5	1	5	-0.8	0
O=C(NC1CC1)c1ccc(C2SCC(=O)N2Cc2ccccc2)cc1 (stereo not given)	/	0.3	6.5	-2.5	4	-3	4	22	-0.8	-5
CCn1c(/C=N/Nc2ccc(C(=O)O)cc2)nc2ccccc21	/	-4.6	4.4	-0.6	-28	/	/	9	/	-2
O=C(NCCS(=O)(=O)N1CCN(c2ccccc2F)CC1)c1cccs1	1%	-0.7	-4.6	0.4	0	2	2	-3	-1.1	-2
COc1ccc(CNc2cc(C)ccn2)cc1	9%	-3.7	?	4.8	-11	11	10	11	-2.1	/
O=S(=O)(/N=C(/c1ccc(F)cc1)N1CCCCC1)c1ccc(Cl)cc1	/	-0.2	-1.0	-0.4	-6	-10*	-22*	-9	-2.3*	-8
CC(=O)NC12CC3CC(C1)CC(C(=O)OCC(=O)Nc1ncc(Cl)c(C)c1Cl)(C3)C2	29%	0.5	-2.3	/	4	/	/	-5	/	-4
Cc1cn(C2OC[C@@H](O)[C@@H]2CO)c(=O)[nH]c1=O (stereo not given in full)	-14%	1.2	?	-2.3	0	10	9	-3	-5.0	-1
COC(=O)CCC(=O)Nc1cccc(Cl)c1	12%	0.4	-1.7	/	-3	/	/	-7	/	0
CCCn1c(SCC(=O)NCc2ccco2)nnc1C(C)C	13%	-2.4	-2.0	/	-10	11	15	-4	2.6	1
Cc1ccc(NC(=O)Nc2ccc(F)cc2F)c(OC(F)F)c1	2%	0.0	1.4	-0.8	3	13	19	-8	3.3	-5
O=C(COC(=O)c1ccccc1OCc1ccccc1Cl)NC1CCS(=O)(=O)C1 (stereo not given)	/	0.2	/	-4.9	/	-20	-16	/	1.6	6
COc1cc(NC(=S)NCc2ccco2)cc(OC)c1	?	0.0	-4.1	/	-9	/	/	4	/	-4
COc1ccc([N+](=O)[O-])cc1NC(=O)c1csc(C)c1	-6%	0.2	3.3	-2.4	-10	7	-6	22	-1.8	5
Cc1ccsc1C(=O)OCc1nc2ccccc2c(=O)[nH]1	15%	1.1	/	/	7	/	/	13	/	-1
COc1ccccc1NC(=O)CN1CCC(n2c(C)nc3cc(F)ccc32)CC1	-6%	-0.8	3.4	/	15	/	/	2	/	15
COc1ccc(OC)c(/C=C/C(=O)OCC(=O)Nc2nnc(-c3ccccc3)o2)c1	-4%	2.1	/	-3.2	/	-55	-20	/	3.1	-6
COc1ccccc1NC(=O)CC1C(=O)NCCN1C(=O)Nc1ccc(Cl)c(Cl)c1 (stereo not given)	9%	0.0	-3.8	/	-13	/	/	19	/	-9
O=C(NNC1=Nc2cccc3cccc1c23)c1ccc(Br)cc1	12%	0.0	4.5	-2.5	62*	-14	5	-4	-5.8	60
CCOC(CNC(=O)Cn1nc(Cc2ccncc2)c2ccccc2c1=O)OCC	-2%	1.4	2.8	-2.8	-3	13	10	-4	-0.1	-7
COc1ccc(C)cc1NC(=O)COC(=O)C1CCN(C(=O)c2ccc(Cl)cc2)CC1	5%	-0.8	-3.9	-0.4	-3	-17	-18	1	9.4	-3

Compound activity from PubChem.

The list is partial (hit frequency here may not be typical).
